High-throughput results from PubChem BioAssay.
Ecoli growth – E. coli growth inhibition | AID 1053175 | hit rate 0.21% among 330,000 | OD600 absorbance (no concentration beside the values) | Escherichia coli growth, OD600, 23 h; active compounds read low;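 active means OD600 absorbance below the run mean of sample wells minus 3.6 SD, in any replicate, cut at about 0.56 in these data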;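 further: stock transfer was 300 nL into about 60 µL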
HNF4A DNA FP – change in binding of human HNF4 alpha to DNA. hit rate 0.3% among 360,000. P41235. HNF4a-FITC DNA binding, fluorescence polarization, 1 h. activity change, % at 10 µM; in the data active means activity change above about 30%, passing the limit was not always enough;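 further: controls were the assay level and a saturating level of protein; the project sought stronger binding though the title names inhibitors; some compounds called inactive have numbers as strong as hits; positive values seem to mean higher polarization but the record does not say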
Target sequence (P41235 whole entry, looked up): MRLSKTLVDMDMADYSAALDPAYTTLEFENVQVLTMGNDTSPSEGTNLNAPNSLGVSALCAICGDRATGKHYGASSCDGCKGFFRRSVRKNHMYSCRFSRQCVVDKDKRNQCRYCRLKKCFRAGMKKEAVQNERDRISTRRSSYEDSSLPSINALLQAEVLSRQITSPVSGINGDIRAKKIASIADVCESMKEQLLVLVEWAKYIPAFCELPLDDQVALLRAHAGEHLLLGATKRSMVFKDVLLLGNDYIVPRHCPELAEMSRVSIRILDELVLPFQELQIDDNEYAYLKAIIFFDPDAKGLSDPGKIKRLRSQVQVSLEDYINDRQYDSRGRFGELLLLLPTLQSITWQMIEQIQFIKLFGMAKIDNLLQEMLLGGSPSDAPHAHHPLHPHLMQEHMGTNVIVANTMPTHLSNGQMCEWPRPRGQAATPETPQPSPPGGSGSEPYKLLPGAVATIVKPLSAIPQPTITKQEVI
B2AR ag – agonists of human beta-2 adrenergic receptor inducing internalization. P07550. Am2.2-beta2AR cells, FAP receptor internalization, flow cytometry; reference of the scale not given here. response, % (no concentration beside the values). hit rate 0.43% among 340,000. AID 504454;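 active means response above a set limit, near 3 SD of response in nonfluorescent compounds, cut at about 42% in these data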;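 further: stock transfer was 100 nL into about 11 µL; a reference agonist was the positive control; negative values mostly stem from fluorescent compounds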
Target sequence (P07550 whole entry, looked up): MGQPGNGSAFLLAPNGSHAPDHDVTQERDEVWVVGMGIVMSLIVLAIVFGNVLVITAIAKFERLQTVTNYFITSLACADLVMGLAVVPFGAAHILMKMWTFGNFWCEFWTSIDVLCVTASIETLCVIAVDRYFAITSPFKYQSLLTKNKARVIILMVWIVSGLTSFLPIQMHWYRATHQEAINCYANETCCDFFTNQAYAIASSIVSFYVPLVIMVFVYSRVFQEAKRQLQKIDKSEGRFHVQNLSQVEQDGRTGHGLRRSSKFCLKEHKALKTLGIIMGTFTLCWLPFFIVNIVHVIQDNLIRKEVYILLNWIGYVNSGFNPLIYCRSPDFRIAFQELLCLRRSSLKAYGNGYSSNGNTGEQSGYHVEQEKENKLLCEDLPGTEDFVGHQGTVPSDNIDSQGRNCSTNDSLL
rRNA inh HTS – inhibitors of bacterial rRNA selective over humanized ribosomes | hit rate 1.6% among 350,000 | AID 720706 | GFP signal change (wild-type ribosome), % (test concentration not listed) | E. coli WT GFP vs humanized-ribosome RFP mutants, fluorescence, 24 h; active compounds read low; DMSO median 0, no signal -100;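 active means significant combined selectivity score with lowered wild-type GFP, culture density cut under 30%, mutant RFP and density less affected; inactive means any of these conditions unmet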; further: one replicate is shown; some compounds called inactive have numbers as strong as hits
UCH37 DUB inh – inhibitors of human deubiquitinating enzyme UCH37. hit rate 0.33% among 330,000. purified proteasome/UCH37, Ub-AMC cleavage fluorescence. inhibition, % (concentration not given with the values). Q9Y5K5. AID 588478;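 active means mean of two replicates above 20%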;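 further: 0% = compound-free wells with enzyme and 100% = wells lacking proteasome; stock transfer was 100 nL into about 20 µL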
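Test system – human UCH37 enzyme supplied as purified proteasome complex · Incubation – 30 min preincubation with enzyme, 25 min cleavage at room temperature · Detection – AMC fluorescence from Ub-AMC cleavage, excitation 355 nm, emission 460 nm · Benchmarks – no-proteasome wells (full inhibition) and compound-free wells (no inhibition)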
FGF22 binding – FGF22 (human) thermal shift binding; calls only at 9.99 µM; hit rate 1.5% among 340,000; Q9HCT0; recombinant FGF22 thermal shift, SYPRO orange fluorescence; percent of sucrose octasulfate shift, DMSO zero;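 active means melting point raised past a set limit in the mean and every replicate; three in four hits are not shown here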
Target sequence (Q9HCT0 whole entry, looked up): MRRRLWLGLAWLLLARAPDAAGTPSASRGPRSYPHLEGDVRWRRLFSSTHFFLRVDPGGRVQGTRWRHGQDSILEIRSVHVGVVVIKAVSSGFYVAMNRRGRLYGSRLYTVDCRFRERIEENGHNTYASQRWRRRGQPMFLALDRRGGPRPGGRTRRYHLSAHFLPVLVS
ALR H2O2 inh – blocks human ALR sulfhydryl oxidase activity. purified ALR, DTT oxidation, H2O2 HRP-luminol luminescence. inhibition, % (test concentration not listed). hit rate 3.8% among 290,000. AID 485317;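 active means mean and each replicate at 75% or more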;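 further: stock transfer was 7.5 nL into about 7.5 µL; 0% = neutral wells and 100% = wells with inactivated enzyme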
rRNA inh HTS OD600 – further read-out of rRNA inh HTS, marked with its call; OD600 change, %; measured here: OD600 growth;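 optical density of the mix in the first replicate; 0 = DMSO median and -100 = no signal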
rRNA inh HTS RFP – recorded beside rRNA inh HTS, whose call it bears; RFP signal change, %; measured here: RFP humanized mutant strains;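 first replicate; 0 = DMSO median and -100 = no signal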
Starred values were filed as active, the others as inactive; i = inactive; . = not tested or not shown.

mol | Ecoli growth | HNF4A DNA FP | B2AR ag | rRNA inh HTS | rRNA inh HTS OD600 | rRNA inh HTS RFP | UCH37 DUB inh | FGF22 binding | ALR H2O2 inh
CCC(C)[C@H]1CN=C(N)N1CCc1cccc2ccccc12 (stereo partly specified) | . | -1.7 | 0 | -22 | -30 | -4.0 | 0.1 | i | -10
Clc1ccc(/C=N/Nc2nnc(Cl)c3ccccc23)cc1 | . | 0.2 | -7 | 1 | 14 | 3.4 | . | i | 8
COC(=O)Cn1nnnc1-c1nc2cc(C)c(C)cc2[nH]c1=O | . | -4.4 | . | 18 | 17 | 2.0 | . | i | .
COc1ccc(CCNC(=O)c2ccc(OCC(=O)N3CCOCC3)c(OC)c2)cc1 | 0.68 | 0.3 | 6 | -2 | 0 | 3.1 | 0.7 | i | -6
O=S(=O)(NCCN1CCOCC1)c1ccc2c(c1)OCCO2 | 0.7 | -0.3 | 1 | 29 | 28 | 1.6 | 4.3 | i | -14
Cc1snc(SCc2c(F)cccc2Cl)c1C#N | 0.7 | 0.2 | -8 | -5 | -11 | -3.6 | 0.4 | i | .
Cc1ccc(S(=O)(=O)NCC(=O)Nc2cccnc2)cc1C | 0.67 | -1.3 | 1 | 5 | 5 | 1.7 | 5.1 | i | 61
Nc1ncnc2c1ncn2[C@@H]1O[C@H](CNS(=O)(=O)c2cc3ccccc3s2)[C@@H](O)[C@H]1O | 0.67 | 5.3 | -11 | -7 | -9 | 6.0 | -2.6 | i | .
COCCCNC(=O)c1cc(=O)n(Cc2ccc(Cl)cc2)c2ccccc12 | 0.71 | -2.4 | 7 | -18 | -7 | -4.7 | -9.0 | i | 1
O=C(Nc1ccn(CCCNCC2CCCO2)c(=O)n1)OCc1ccccc1 (stereo unspecified) | . | 2.2 | -3 | 23 | 25 | 2.5 | . | i | .
CN(CCO)c1nc(N)c2c(N)nc3c(c2c1C#N)CC(=O)N3Cc1cccs1 | 0.65 | 4.0 | 1 | 7 | 6 | 10 | -251 | i | -11
COc1ccc(F)cc1S(=O)(=O)N1CCN(c2ccccn2)CC1 | 0.62 | 0.6 | -13 | 1 | -5 | -5.0 | 4.5 | i | -7
CC(C)C[C@H]1CN(CCCC[C@H]2CNC(=O)C(=O)N2CCC2CCCCC2)C(=O)C(=O)N1CCC1CCCCC1 | . | -3.2 | . | 0 | 9 | -2.7 | . | i | .
COc1ccc(CN(C)CC(=O)c2c(N)n(Cc3ccccc3)c(=O)n(C)c2=O)c(OC)c1 | 0.68 | 2.3 | 1 | . | . | . | 0.0 | . | -3
O=C1C=C(c2ccccc2)OC(=O)C1C(=O)c1ccccc1 (stereo unspecified) | 0.66 | -1.8 | 29 | 0 | 3 | 3.2 | 8.9 | i | -1
CC1CCC(NC(=O)c2ccc(NS(=O)(=O)c3ccc4[nH]c(=O)[nH]c4c3)cc2)CC1 (stereo unspecified) | 0.71 | 0.4 | 0 | 17 | 26 | 0.9 | -1.1 | i | 27
Cc1nc(Cl)sc1C(=O)NC(C)c1ccc(Cl)cc1 (stereo unspecified) | 0.62 | -3.1 | 4 | 2 | 3 | -3.2 | 1.1 | i | 26
COc1ccccc1C(=O)NCC(=O)OC(C)C(=O)NC1CCCCC1C (stereo unspecified) | 0.73 | 2.9 | -5 | -3 | 1 | 0.2 | 0.2 | i | 0
Cc1cccnc1CN1CCN(Cc2nc(Cc3cccc(F)c3)no2)CC1 | 0.7 | -0.3 | -6 | 8 | 14 | -4.2 | 6.5 | i | .
NNS(=O)(=O)c1ccc2c(c1)Cc1cc(S(=O)(=O)NN)ccc1-2 | 0.69 | 1.4 | 18 | 4 | -16 | 9.1 | 3.8 | i | 99*
COC(=O)c1ccc(C2C(C#N)=C(N)Oc3cc(N)ccc32)cc1 (stereo unspecified) | 0.65 | 7.9 | 18 | -12 | -14 | 0.9 | -0.2 | i | 97*
Cc1ccc(C)c(C(O)c2ncc(-c3ccccc3F)[nH]2)c1 (stereo unspecified) | . | 3.1 | . | 2 | -14 | 0.0 | . | i | .
COc1ccc(S(=O)(=O)N2CC(=O)Nc3ccccc32)cc1F | 0.72 | 4.1 | -7 | 0 | 12 | 5.7 | 3.8 | i | 2
CCN(c1ccccc1)S(=O)(=O)c1ccc(OC)c(NC(=O)c2ccccc2OC)c1 | 0.69 | 0.5 | 5 | 2 | 15 | 1.5 | 2.2 | i | .
Cc1ccc(S(=O)(=O)Nc2c(C)[nH]c(=O)[nH]c2=O)cc1C | 0.67 | -3.0 | 0 | . | . | . | 0.9 | i | .
COc1cc(NC(=O)N2CCc3nc(NCc4cccc(Oc5ccccc5)c4)ncc3C2)cc(OC)c1OC | . | 2.0 | . | -22 | -25 | -4.1 | . | i | .
COc1ccc(CC(Cc2ccc(OC)c(OC)c2)NC=O)cc1OC | . | -3.7 | . | -2 | 0 | -0.5 | . | i | .
COc1ccc2cc(OCC(=O)NNC(=O)Nc3ccc(C(C)=O)cc3)ccc2c1 | 0.72 | -5.2 | -2 | 2 | 14 | 3.8 | 0.0 | i | -17
CCOC(=O)C1CCCN(C(=O)c2cc(-c3ccccc3)on2)C1 (stereo unspecified) | 0.69 | 1.4 | 11 | . | . | . | 3.7 | . | 2
O=C(CSc1nnnn1Cc1ccccc1)NC1CCCCC1 | 0.73 | 0.0 | -14 | 0 | 5 | -3.3 | -0.5 | i | -1
CCOC(=O)c1cccc(NC(=O)CCNS(=O)(=O)c2cc(Br)cnc2N)c1 | 0.63 | 0.2 | -2 | -16 | -16 | 1.8 | -2.2 | i | -1
OC(CNCc1ccco1)COc1ccccc1 (stereo unspecified) | 0.76 | 0.7 | -3 | . | . | . | 2.1 | . | .
O=C(CCSc1ccccc1)NCCN1CCOCC1 | 0.72 | -3.8 | 4 | . | . | . | 1.7 | . | 15
Cc1cc(OCc2cc(C(=O)N3CCCCCC3)no2)cc(C)c1Cl | 0.71 | 3.7 | 1 | -33 | -41 | -4.8 | 6.4 | i | 0
Cc1nn(-c2ccccc2)c2c1C1(C(=O)N(C(C)C)c3ccccc31)C(C#N)=C(N)O2 (stereo unspecified) | 0.68 | 0.8 | 6 | . | . | . | 0.4 | . | 9
N/C(=N\OC(=O)CCCc1ccccc1)c1cccnc1 | 0.69 | -2.2 | -3 | . | . | . | 3.5 | . | -12
O=C(Nc1cc2ccccc2oc1=O)c1ccccc1 | 0.64 | 0.1 | -10 | 12 | 15 | 6.5 | 1.8 | i | -4
CSC1=NC2(CCCCC2)C2=C(CCCC2)N1 | 0.67 | 0.9 | 6 | 21 | 5 | 5.2 | 1.5 | i | -3
C[C@]12c3[nH]c4cc(-c5ccco5)ccc4c3CCN1C(=O)[C@@H](CC(=O)NCCc1ccccn1)C[C@@H]2C(=O)N1CCOCC1 | 0.7 | 0.7 | -8 | . | . | . | -39 | i | .
Cc1ccc(N(C)S(=O)(=O)c2cccc(C(=O)OCC(=O)N3CCCC(C)C3)c2)cc1 (stereo unspecified) | 0.63 | -1.6 | 0 | 12 | 12 | 1.8 | 2.9 | i | 1
Cc1ccc(NC(=O)c2cc(S(=O)(=O)N3CCCCC3)c[nH]2)cc1F | 0.7 | -0.6 | 13 | 7 | 15 | -2.0 | 3.9 | i | -2
CC(C)n1c(SCC(=O)N2CCCC2)nc2c1c(=O)n(C)c(=O)n2C | 0.62 | 1.0 | 1 | . | . | . | 1.1 | . | -2
COc1ccccc1Oc1ccc(N2CC(C(=O)OCC(=O)c3ccc(F)cc3)CC2=O)cc1 (stereo unspecified) | 0.71 | -1.6 | -1 | 5 | -1 | -0.7 | 3.8 | i | .
N/C(=N\OC(=O)c1csnn1)c1ccc(C(F)(F)F)cc1 | . | 3.8 | -8 | 4 | 6 | 2.1 | . | i | .
CCCCCCCCCOC(=O)C(CC(=O)O)N1CCOCC1 (stereo unspecified) | 0.7 | 0.3 | 2 | 0 | 6 | -0.4 | 1.3 | . | 29
COc1ccc(C(=O)Nc2ccccc2-c2nnn(CC(=O)Nc3ccc4c(c3)OCCO4)n2)cc1 | . | -4.1 | -3 | . | . | . | . | . | -5
Cc1nc2ccc(S(=O)(=O)NCC(=O)N3CCOCC3)cc2s1 | 0.66 | 3.0 | 0 | . | . | . | 0.1 | . | 10
COc1ccc(S(=O)(=O)N2CCc3ccccc32)cc1C(=O)NCCc1ccccn1 | 0.72 | 1.6 | 3 | -3 | -3 | 0.3 | -1.1 | . | -13
CNCCOc1nc(N2CCOCC2)nc(C)c1[N+](=O)[O-] | 0.69 | 3.1 | 2 | -3 | 0 | 0.2 | 2.4 | i | -7
CC1CCCCC12NC(=O)N(Cn1nnc3ccccc3c1=O)C2=O (stereo unspecified) | 0.7 | -2.0 | -3 | . | . | . | 1.5 | . | -7
CCCC/C(O)=N\S(=O)(=O)c1ccc(N=NN(C)C)cc1 | . | 1.7 | 3 | . | . | . | . | . | 0
COc1ccc(C(=O)Nc2ccc(N3CCN(C(C)=O)CC3)cc2)cc1[N+](=O)[O-] | 0.67 | . | . | 8 | 18 | 8.8 | 7.6 | i | .
C[C@@H](NC(=O)c1[nH]cnc1C(=O)Nc1ccc(Cl)cc1)c1ccccc1 | . | -5.0 | 7 | 0 | -4 | 6.1 | 2.4 | i | -3
CC(C)CC(=O)Nc1cc([N+](=O)[O-])ccc1Cl | 0.71 | -1.9 | 16 | 5 | 3 | 1.7 | 2.3 | i | -4
COC(C/C=C\[C@@H](O)[C@H](C)OCc1ccccc1)OC | . | -2.0 | 6 | 9 | 1 | 6.1 | 1.9 | i | -3
CCC(CC)NC(=O)COC(=O)c1cc(SC)ccc1Cl | 0.68 | 4.5 | -1 | 16 | 0 | 1.6 | -7.7 | i | 5
COc1cccc(C(NC(C)=O)c2nc(-c3ccccc3C)cs2)c1 (stereo unspecified) | . | 2.1 | . | -1 | -2 | -2.5 | . | i | .
COc1ccc(NC(=O)C2(C)CCN2Cc2ccc(OC(C)C)cc2)cc1OC (stereo unspecified) | . | 3.2 | . | -13 | -2 | -5.3 | . | i | .
CCOC(=O)C1=C(CC)Nc2ccccc2N/C1=N\S(=O)(=O)c1ccc(C(=O)OCC)cc1 | 0.69 | -0.6 | -5 | -23 | -43 | -5.6 | 1.5 | i | -15
Cc1ccc2cc(C(c3nnnn3C3CCCC3)N(Cc3ccccc3)Cc3ccco3)c(=O)[nH]c2c1 (stereo unspecified) | 0.72 | 4.6 | 3 | 9 | 6 | -2.3 | -6.4 | i | -11

Pulled one by one from the entries so far (three):
mol | Ecoli growth | HNF4A DNA FP | B2AR ag | rRNA inh HTS | rRNA inh HTS OD600 | rRNA inh HTS RFP | UCH37 DUB inh | FGF22 binding | ALR H2O2 inh
Cc1nc2ccc(S(=O)(=O)NCC(=O)N3CCOCC3)cc2s1 | 0.66 | 3.0 | 0 | . | . | . | 0.1 | . | 10
Cc1nn(-c2ccccc2)c2c1C1(C(=O)N(C(C)C)c3ccccc31)C(C#N)=C(N)O2 (stereo unspecified) | 0.68 | 0.8 | 6 | . | . | . | 0.4 | . | 9
COc1ccc(NC(=O)C2(C)CCN2Cc2ccc(OC(C)C)cc2)cc1OC (stereo unspecified) | . | 3.2 | . | -13 | -2 | -5.3 | . | i | .

Some of the compounds tested, so the mix of outcomes need not match the whole.
